Choline anaer gr: choline-fed anaerobic bacterial growth inhibition; Gram-negative bacterium anaerobic choline minimal medium, absorbance growth; active compounds read low; many inactives read as strong as hits in the columns shown; hit rate 0.2% among 55,000; AID 1963822; calls only;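 active means growth z-score on choline under -2 at 7 or 20 h with little or no fall on glycerol, limits in tiers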;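 further: stock transfer was 300 nL into about 50 µL; the organism is E. coli; final concentration not given here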
Choline anaer gr early: second read-out of Choline anaer gr, no call of its own (marks repeat the call); z-score; measured here: choline growth z-score, timepoint 1;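 score of optical density at 7 h as mean of two plates; lower means less growth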
Active calls of the source: *; i = inactive.

The first 5 compounds, ahead of the listing:
Every second line gives: Choline anaer gr | Choline anaer gr early
- CCSc1nnc(-c2nn(C)c3c2CN(C(=O)Nc2ccccc2)CC3)n1CC
  i | -1.2
- O=C(Nc1cccc(-c2noc(C3CCCC3)n2)c1)c1ccc2c(c1)OCO2
  i | 2.6
- CCOc1ccc(C2Sc3ccccc3NC3=C2C(=O)c2ccccc23)cc1 (stereo unspecified)
  i | 0.66
- CCc1cc(C2CCCN2C(=O)c2c(Br)cnn2C)on1 (stereo unspecified)
  i | 0.31
- Cn1c(=O)n(CCC(=O)N2CCCC2)c(=O)c2cc(S(=O)(=O)N3CCc4ccccc43)ccc21
  i | 0.07

Results, from the first entry:
Every second line gives: Choline anaer gr | Choline anaer gr early
- CCSc1nnc(-c2nn(C)c3c2CN(C(=O)Nc2ccccc2)CC3)n1CC
  i | -1.2
- O=C(Nc1cccc(-c2noc(C3CCCC3)n2)c1)c1ccc2c(c1)OCO2
  i | 2.6
- CCOc1ccc(C2Sc3ccccc3NC3=C2C(=O)c2ccccc23)cc1 (stereo unspecified)
  i | 0.66
- CCc1cc(C2CCCN2C(=O)c2c(Br)cnn2C)on1 (stereo unspecified)
  i | 0.31
- Cn1c(=O)n(CCC(=O)N2CCCC2)c(=O)c2cc(S(=O)(=O)N3CCc4ccccc43)ccc21
  i | 0.07
- Cc1cc(-c2c(C)sc(C)c2S(=O)(=O)N2CCN(c3ccc(Cl)cc3)CC2)n[nH]1
  i | 1.1
- Cc1cc(C)cc(-n2ncc3c(N4CC(C)OC(C)C4)ncnc32)c1 (stereo unspecified)
  i | -0.01
- CCCCC[C@@H](O)/C=C/[C@H]1[C@H](O)CC(=O)[C@@H]1CCCCCCC(=O)O
  i | 0.38
- Cc1ccccc1NC(=O)N1CCOc2ccccc21
  i | -2.4
- COc1ccc(Nc2nc(C)c(NC(=O)C(C)(C)C)c(Nc3ccc(OC)cc3)n2)cc1
  i | -1.3
- CCOc1ccc(N2C(=O)N(Cc3cccc(OC)c3)C3CS(=O)(=O)CC32)cc1 (stereo unspecified)
  i | 0.65
- CCn1cccc1-c1nc(C)c(C(=O)N2CCN(c3cccc(C)c3)C(C)C2)s1 (stereo unspecified)
  i | -0.9
- C=CCn1c(=O)c2ccc(C(=O)NC(C)CC)cc2n2c(=O)n(CC(N)=O)nc12 (stereo unspecified)
  i | -1.7
- CCc1cc(C2CCCN2S(=O)(=O)c2ccc(C3CCCCC3)cc2)on1 (stereo unspecified)
  i | 1.5
- COc1ccc(CNC(=O)Nc2ccc3c(c2)N(Cc2ccccc2)C(=O)c2ccccc2S3)cc1
  i | 0.84
- COc1cc(Cl)c(NC(=O)c2cccn3c(-c4ccccc4F)nnc23)c(OC)c1
  i | 0.48
- CC(NC(=O)c1ccc2c(c1)OCCO2)c1ccc2c(c1)OCCCO2 (stereo unspecified)
  i | -0.62
- CC(C)(C)NC(=O)c1cccc(Oc2cc(-c3ccc(F)cc3)ncn2)c1
  i | 0.91
- CC(C)c1ccc(-c2nn3c(=O)c(NC(=O)c4ccccc4)cnc3o2)cc1
  i | 1.3
- Cc1ccc(-c2noc(CSc3nc4cc5c(cc4c(=O)n3Cc3ccccc3)OCO5)n2)cc1
  i | 0.31
- CC(=O)Nc1ccc(Nc2cc(N3CCCC3)nc(C)n2)cc1
  i | 0.57
- CCCCOc1ccc(NC(=O)c2cc(=O)c3ccc(C)c(C)c3o2)c2cccnc12
  i | 0.54
- CC(C)(C)C1CCC2(CC1)NCCN=C2NCc1cccc(F)c1 (stereo unspecified)
  i | -0.04
- Cc1ccc(-c2cc(N3CCN(S(C)(=O)=O)CC3)ncn2)cc1
  i | 0.54
- COc1ccc(NC(=O)N2CCCN(c3nc4cc(Br)ccc4n4cccc34)CC2)cc1OC
  i | 0.71
- Cc1cc(NCc2ccccn2)n2nc(C(F)(F)F)c(-c3ccc(Cl)cc3)c2n1
  i | 0.04
- CCCCn1c(=O)[nH]c2c(C(=O)N3CCCC(C)C3)snc2c1=O (stereo unspecified)
  i | 1.9
- Cc1c(NC(C)C)c(=O)n(-c2ccccc2)n1C
  i | -0.25
- O=C(Cn1nc(C(=O)N2CCCC2)c2ccccc21)N1CCN(C2CCCCC2)CC1
  i | -0.53
- O=C(NC1CC1)c1ccc(S(=O)(=O)c2ccc(Cl)cc2)nc1
  i | 0.08

Part of the list above, as tab-separated lines:
canonical_smiles	Choline anaer gr	Choline anaer gr early
CCc1cc(C2CCCN2C(=O)c2c(Br)cnn2C)on1 (stereo unspecified)	i	0.31
Cn1c(=O)n(CCC(=O)N2CCCC2)c(=O)c2cc(S(=O)(=O)N3CCc4ccccc43)ccc21	i	0.07
Cc1cc(-c2c(C)sc(C)c2S(=O)(=O)N2CCN(c3ccc(Cl)cc3)CC2)n[nH]1	i	1.1
Cc1cc(C)cc(-n2ncc3c(N4CC(C)OC(C)C4)ncnc32)c1 (stereo unspecified)	i	-0.01

Next section.
Every second line gives: Choline anaer gr | Choline anaer gr early
- COc1cc(NC(=O)C2CCN(c3nccc4sc(C)cc34)CC2)cc(OC)c1
  i | -2.4
- O=C(NC1CCCC1)c1cnc2sc3c(n2c1=O)CCCCCC3
  i | 0.03
- O=C(CN1CCN(Cc2ccccc2)C(=O)C1=O)NC1CCCC1
  i | -1.8
- O=c1ccc(-c2ccc(F)cc2)nn1CCc1nc(-c2ccc3c(c2)OCO3)no1
  i | -1.9
- Cc1ccc(NC(=O)NCCCn2c(-c3ccncc3)nc3cccnc32)cc1F
  i | -0.23
- COc1ccc(CSc2nccc3c2ccn3CC(=O)NCCC2=CCCCC2)cc1
  i | 0.46
- CC(=O)Nc1c(C)cc(C)cc1-c1nnc(SCC(=O)Nc2ccccc2Cl)[nH]c1=O
  i | 0.08
- O=C(Nc1ccccc1)c1nnc(COCC(=O)N2CCN(c3ccccc3)CC2)s1
  i | -0.33
- O=C(NCCc1cscn1)[C@H]1CSCN1C(=O)c1cccs1
  i | 0.02
- CCS(=O)(=O)Nc1ccc(N2CCN(c3cccc(Cl)c3)CC2)c(C(=O)O)c1
  i | 0.68
- Cc1ccc2[nH]c3c(=O)n(CC(=O)NCc4ccc(C(C)C)cc4)cnc3c2c1
  i | -0.9
- Cc1cc(NC(C)c2ccccc2)n2ncc(-c3ccc(F)cc3)c2n1 (stereo unspecified)
  i | 0
- OC[C@@H](O)[C@@H](O[C@@H]1O[C@H](CO)[C@H](O)[C@H](O)[C@H]1O)[C@H](O)[C@@H](O)CO
  i | 0.5
- CC(C)CNC(=O)c1csc2c1CCCC2
  i | 0.33
- COc1ccc(OC)c(S(=O)(=O)N2CCCC2c2cc(C(C)C)no2)c1 (stereo unspecified)
  i | 1
- CS(=O)(=O)N1CCCc2cc(NS(=O)(=O)c3ccc4c(c3)OCCO4)ccc21
  i | 0.33
- Cc1ccc(Nc2nc(-c3cc(C)ccc3C)cs2)nc1
  i | 0.71
- O=C(NCCc1nc2cccnc2n1-c1ccccc1)Nc1ccccc1
  i | -0.35
- CCCc1nnc2sc(-c3ccc4ccccc4n3)nn12
  i | -0.26
- O=C(Nc1ccccc1Br)C1CCCN(c2nc3cccnc3s2)C1 (stereo unspecified)
  i | 0.07
- Cc1ccc(Cl)cc1NC(=O)c1cc(-c2ccccn2)n[nH]1
  i | -0.14
- CCc1cc(C2CCCN2S(=O)(=O)Cc2ccccc2)on1 (stereo unspecified)
  i | 0.43
- Cc1ccc(C)c(NC(=O)Nc2ccc(CCc3nc4ccccc4[nH]3)cc2)c1
  i | 0.72
- Cn1c(=O)c(-c2noc(C(=O)NCCC3=CCCCC3)n2)nn(-c2ccccc2)c1=O
  i | -0.42
- CN(C(=O)Cn1c(=O)c(C(F)(F)F)nc2ccccc21)C1CCCCC1
  i | 0.21
- Cn1c(=O)c2cc(C(=O)NC3CC3)sc2n(C)c1=O
  i | -0.62
- CCc1nnc(-c2cc(S(=O)(=O)N3CCC(C)CC3)c[nH]2)o1
  i | -0.8
- Cc1nn(-c2nc3ccccc3[nH]2)c2c1C(c1cc(Br)ccc1F)CC(=O)N2 (stereo unspecified)
  i | -0.3
- COc1ccc(C(Cl)=C(c2ccc(OC)cc2)c2ccc(OC)cc2)cc1
  i | 1.3
- CCOC(=O)C1CCN(CC2=NS(=O)(=O)c3ccccc3N2)CC1
  i | -1.1
- CC1(C)COC(c2cccn2Cc2c(F)cccc2Cl)=N1
  i | -1.2
- CCOc1ccc(C(=O)N2CCCC(C)(C(=O)NCc3cccc(OC)c3)C2)cc1 (stereo unspecified)
  i | -1.3
- CCCc1nc(C)cc(N2CCOCC2)n1
  i | -0.41
- c1ccc(-c2nnc(-c3cccnc3N3CCN(c4ccccn4)CC3)o2)cc1
  i | -0.87
- Cc1ccc2oc(-c3noc(-c4ccc(Br)cc4)n3)c(C)c2c1
  i | 0.41
- COc1ccccc1N1CCN(S(=O)(=O)c2cc(-c3cc(C(F)(F)F)on3)cs2)CC1
  i | 1.6
- Cc1nn(-c2cc(N(C)C)ncn2)c(C)c1CCC(=O)NC1CCCCC1
  i | -1.2
- O=C(Nc1ccc(F)cc1)NC1CCN(c2ccc(F)cc2)C1=O (stereo unspecified)
  i | 2
- O=C(Cn1c(=O)c(C(F)(F)F)nc2ccccc21)Nc1ccccc1Cl
  i | -0.7
- COc1ccc(Cn2ccc3c(SCC(=O)Nc4cc(OC)ccc4OC)nccc32)cc1
  i | 0.69
- CCOC(=O)c1nc(NCCCN(CC)c2ccccc2)c2c(C)noc2n1
  i | -1.8
- Nc1nc(-c2ccc(Cl)cc2)nn1C(=O)c1ccc(Cl)cc1
  i | 0.88
- CCc1nnc2sc(-c3cc(C)nc4ccc(Br)cc34)nn12
  i | -0.82
- O=C(NC1CCCCC1)C1CCCN(c2nccn3nc(-c4cccc(Cl)c4)cc23)C1 (stereo unspecified)
  i | 1.1
- COC1CCN(C(=O)c2cc(Cc3n[nH]c(=O)c4ccccc34)ccc2F)CC1
  i | 0.23
- Cc1ccccc1-c1ccc(N2CCCC(C(=O)NC3CCCCC3)C2)nn1 (stereo unspecified)
  i | -1.2
- O=C(Cn1ncc2c(N3CCCCC3)ncnc21)NCCN1CCCCC1
  i | -0.48
- COc1ccc(S(=O)(=O)n2ccnc2)cc1C
  i | 0.89
- Cc1nc(-c2ccc(C)c(-n3cc(C(=O)Nc4cccc(Cl)c4)c(C)n3)c2)no1
  i | 3.5
- CC(C)c1cc(C2CCCN2S(=O)(=O)c2ccc(C3CCCCC3)cc2)on1 (stereo unspecified)
  i | 0.98
- Cc1onc2c(=O)n(CC(=O)N3CCN(C4CCCCC4)CC3)nc(-c3ccc(Cl)cc3)c12
  i | -2.2
- CCOc1ccc(CNC(=O)C2CCN(Cc3cc4ccccc4n3Cc3ccccc3)CC2)cc1
  i | 2
- Cc1ccccc1CN1C=NS(=O)(=O)c2ccccc21
  i | -0.4
- O=C(CSc1nccn2nc(-c3ccccc3)cc12)NCc1ccccc1Cl
  i | 1.6
- CC(C)NC(=O)c1ccc2c(=O)n3c(nc2c1)CCCC3
  i | 0
- O=C1COc2ccc(Cl)cc2N1Cc1nc(-c2ccc(N3CCOCC3)cc2)no1
  i | 0.48
- CN1CCN(C(=O)C2CCN(c3ccc(Cl)cc3)C2=O)CC1 (stereo unspecified)
  i | -0.19
- CCCCc1ccc(NC(=O)Cn2nc3cc(C)nc(-c4ccc(OC)cc4)n3c2=O)cc1
  i | 1.2
- O=C(C1CCC(=O)N1S(=O)(=O)c1ccccc1)N1CCN(C2CCCCC2)CC1 (stereo unspecified)
  i | 0.91
- Cc1ccc2ccc3cc(C(=O)N4CCN(C5CCCCC5)CC4)nc3c2[nH]1
  i | 1.3

Next part.
Every second line gives: Choline anaer gr | Choline anaer gr early
- Cc1oc2ncnc(N3CCC(C(=O)Nc4ccccc4Cl)CC3)c2c1C
  i | -0.12
- O=C(c1ccc(Cn2c(=O)c(=O)n(Cc3cccc(Cl)c3)c3cccnc32)cc1)N1CCOCC1
  i | -0.35
- O=c1cc(CN2CCN(CCO)CC2)nc2nc(-c3ccc(Cl)cc3)[nH]n12
  i | 0.66
- O=C(Nc1ccc(Cl)cc1)C1CCN(c2ccccc2)C1=O (stereo unspecified)
  i | -0.58
- COc1cc(CC2C(=O)N(C)c3ccccc32)cc(Br)c1OC (stereo unspecified)
  i | -0.46
- Cn1c(CN2CCN(C(=O)c3ccc(Cl)cc3)CC2)nc2cc(C(=O)N3CCCC3)ccc21
  i | 0.89
- Cc1ccc(S(=O)(=O)N2CCCC(c3nc(-c4ccc(NS(C)(=O)=O)cc4)no3)C2)cc1 (stereo unspecified)
  i | 0.37
- CCCc1nnc2c3c4c(sc3ncn12)CC(C)CC4 (stereo unspecified)
  i | -0.11
- Cc1ccc(-c2noc3ncnc(N4CCC(C(=O)N(C)c5cc(C)ccc5C)CC4)c23)cc1
  i | 0.3
- CCNC(=O)N1CCN(CCCC(c2ccc(F)cc2)c2ccc(F)cc2)CC1
  i | 0.58
- Fc1ccccc1Nc1c2c(nc3ncnn13)CCC2
  i | -1.4
- Cc1cc(Nc2ccc(N3CCOCC3)cc2)n2ncnc2n1
  i | -1.6
- CNS(=O)(=O)c1ccc2nc(NS(=O)(=O)c3ccc(Br)cc3)sc2c1
  i | -1.7
- Cc1ccc(Cc2nnc(-c3cccc(N)c3)o2)cc1
  i | -0.52
- CC(=O)Nc1ccc(-c2noc(C3CCCN(C(=O)c4ccoc4)C3)n2)cc1 (stereo unspecified)
  i | -1
- Cc1c2cnn(CC(=O)N3CCC(C)CC3)c(=O)c2c(C)n1Cc1ccccc1F
  i | 0.27
- Cc1c(C(=O)N2CCN(C)CC2)sc2ncnc(N3CCN(c4ccccn4)CC3)c12
  i | 0.83
- CN1CCN(c2nc(N(C)C)nc3c2cnn3C)CC1
  i | -0.13
- Cc1cc(C)n(-c2nc(C)c(C(=O)N3CCN(CCO)CC3)s2)n1
  i | 0.34
- CCCCNC(=O)CC1CCN(C(=O)C2CCCCC2)CC1
  i | -0.67
- Cc1occc1-c1nnc(SC(C)C(=O)N2CCc3ccccc32)o1 (stereo unspecified)
  i | 0.44
- CCCCOc1ccc(C(=O)NCCc2c[nH]c3ccccc23)cc1
  i | 0.34
- O=C(CCn1cnc2onc(-c3cccc(F)c3)c2c1=O)NCCCc1ccccc1
  i | 0.8

Compound activity as filed in PubChem BioAssay.

An excerpt; the hit share may differ from the screen's.
